# Mtb bLac sens: beta-lactam sensitization of Mtb H37Rv; M. tuberculosis H37Rv growth with meropenem, percent inhibition; hits of this screen are not shown here; inhibition, % at 25 µM; 0.27% of 330,000 active; AID 434955;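 active = about 74% or more and at least 40 points above the plate without the antibiotic, then above 30% in a dose series; inconclusive = first-round hits that could not be retested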;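 also: growth measured after seven days incubation then overnight dye step; 0% = bacteria only wells and 100% = bacteria with antibiotic; twin plates without the antibiotic show which effects depend on it; some results filed as inactive read as strong as hits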
# RecA splice inh: blocks M. tuberculosis RecA intein splicing; cell-free RecA intein splicing, fluorescence; P9WHJ3; inhibition, %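 (about 9 µM by stock and volumes)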; AID 2221; 0.75% of 290,000 active; in the data active = inhibition above about 30%; inconclusive = no clear call, values can overlap the other calls;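 also: 0% = vehicle wells and 100% = reference inhibitor control wells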
# Target sequence (P9WHJ3 whole entry, looked up, canonical isoform): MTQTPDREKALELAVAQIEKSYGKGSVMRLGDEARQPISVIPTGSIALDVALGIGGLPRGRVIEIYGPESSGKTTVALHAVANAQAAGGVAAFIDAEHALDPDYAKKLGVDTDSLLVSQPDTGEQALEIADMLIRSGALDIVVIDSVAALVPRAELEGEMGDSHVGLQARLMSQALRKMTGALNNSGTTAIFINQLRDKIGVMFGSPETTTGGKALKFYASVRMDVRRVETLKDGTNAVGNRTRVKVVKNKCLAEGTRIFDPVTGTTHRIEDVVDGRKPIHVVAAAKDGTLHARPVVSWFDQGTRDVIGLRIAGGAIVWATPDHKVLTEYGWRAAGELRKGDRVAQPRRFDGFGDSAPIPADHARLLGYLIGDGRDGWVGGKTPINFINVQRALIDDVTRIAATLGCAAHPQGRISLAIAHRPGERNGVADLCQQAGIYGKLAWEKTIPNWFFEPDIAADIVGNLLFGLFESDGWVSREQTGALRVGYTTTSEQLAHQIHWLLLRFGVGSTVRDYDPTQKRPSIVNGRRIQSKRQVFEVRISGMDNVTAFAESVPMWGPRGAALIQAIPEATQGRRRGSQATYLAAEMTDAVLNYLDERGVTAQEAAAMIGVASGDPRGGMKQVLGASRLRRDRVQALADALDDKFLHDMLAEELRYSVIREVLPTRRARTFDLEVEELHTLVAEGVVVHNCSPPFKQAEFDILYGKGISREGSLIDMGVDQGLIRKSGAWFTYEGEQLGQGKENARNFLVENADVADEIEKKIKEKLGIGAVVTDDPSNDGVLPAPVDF
# Mtb growth: M. tuberculosis H37Rv growth inhibitors, H37Rv strain (AID 1626); 0.95% of 220,000 active; M. tuberculosis H37Rv growth inhibition; higher % means a stronger effect; inhibition, % at 10 µM; hits with a dose series show IC50 in µM;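 active = confirmed in a dose series; inconclusive = inhibition above 80% but not taken into the dose series; inactive = below 80% or under 30% at every dose of the series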;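 also: bacteria incubated seven days before Alamar blue readout; 0% = bacteria only wells and 100% = bacteria with antibiotic wells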
# Arbovirus inh: arbovirus infection inhibition; arbovirus infection cell-based antiviral screen; inhibition, % at 10 µM; 0.37% of 200,000 active;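 active = inhibition from about 30%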;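 also: bluetongue infection of BSR cells; cell survival read as ATP light after 72 h; 0% = infected wells without compound and 100% = uninfected wells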
# YopH PTP inh: YopH (Yersinia) phosphatase inhibition | fluorescence Ex485/Em525 | inhibition, %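 (about 10 µM by stock and volumes)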 | 0.16% of 140,000 active | AID 898;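 active = inhibition of 50% or more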;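 also: controls were vehicle for no effect and minimum signal wells for full effect; inactives centre near -20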
# Arbovirus inh repeat: further read-out of Arbovirus inh, marked with its call; inhibition, %; measured here: 10K subset replicate screen; many hits read low in the repeat;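 first of two repeat runs on a subset; 0% = infected and 100% = uninfected wells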
# Active calls of the source: *; ? = inconclusive; . = no result given. These rows are one share of the data. The share of hits here may be higher or lower than overall.
SMILES,Mtb bLac sens,RecA splice inh,Mtb growth,Arbovirus inh,YopH PTP inh,others
COc1cccc(-c2nc(C(N)=O)c3[nH]c(=O)n(-c4cccc(Cl)c4)c3n2)c1OC,-1.9,-3.2,13.1%,-0.3,-39.7,Arbovirus inh repeat=4.4
Cc1ccc(C)c(N2CCN(C(=O)C3CCCN(c4ncnc5c4nc4n5CCCCC4)C3)CC2)c1 (centres undefined),99.3,13.4,.,.,.,
O=C(NNC(=O)c1cc2ccccc2cc1O)Nc1ccccc1F,-8.4,-15.9,.,.,.,
CCC(=O)c1ccc(N2CCN(C(=O)c3cc([N+](=O)[O-])ccc3N3CCN(C)CC3)CC2)c(F)c1,-3.7,0.2,-2.9%,6.0,-32.5,
Cc1cccc(C)c1N(CC(=O)N1CCOCC1)S(C)(=O)=O,-1.7,-2.2,.,.,.,
Cc1ccc(C(=O)OCc2nnc(-c3ccc(Br)cc3)o2)cc1,5.0,6.6,-7.1%,-4.9,.,
CC(=O)OCc1c(C(F)(F)F)nn(C)c1Oc1ccccc1,13.7,1.3,-16.8%,4.5,-7.7,
Cc1ccc(C)c(/C(O)=C2\C(=O)C(=O)N(CCCn3ccnc3)C2c2ccncc2)c1 (centres undefined),0.3,2.4,-6.3%,9.8,-36.1,
O=C(Cc1ccccc1[N+](=O)[O-])N/N=C/c1cccnc1,-3.4,-0.7,.,.,.,
CCCCNC(=O)CC1Nc2ccccc2NC1=O (centres undefined),-1.6,-2.7,-2.1%,-2.5,-15.3,Arbovirus inh repeat=-2.8
CCCOc1ccc(S(=O)(=O)NCCN2CCOCC2)c2ccccc12,-7.3,3.4,4.2%,5.9,17.4,
O=C(/C=C/c1cccc(F)c1)Nc1cc(S(=O)(=O)N2CCOCC2)ccc1N1CCCC1,-1.8,3.5,3.5%,-15.5,-19.1,
CCn1c(Cc2ccccc2)nnc1SCc1ccc([N+](=O)[O-])cc1,1.7,1.5,6.4%,5.8,-20.2,
O=C(NCCN1CCOCC1)c1ccccc1N1C(=O)[C@@H]2Cc3c([nH]c4ccccc34)C(c3ccc(F)cc3)N2C1=O (some centres undefined),-3.5,-5.0,.,.,.,
O=C(Nc1ccccc1Cl)c1c(F)c(F)c(F)c(F)c1F,99.5,2.7,8.0%,.,-20.2,
COc1ccc(N2CC(NS(=O)(=O)c3ccc(F)cc3)CC2=O)cc1 (centres undefined),-3.5,-3.3,.,.,.,
COC(=O)N/N=C/c1c[nH]c2ccccc12,2.2,-2.9,-7.2%,5.2,-25.9,
CN(C)CCNC=C(C(=O)Nc1ccc(Cl)cc1Cl)C(=O)Nc1ccc(Cl)cc1Cl,99.6,4.9,2.45µM*,-6.2,-35.2,
C/C(CC(=O)NC(C)(C)C)=N\NC(=O)COc1ccc(C)cc1Br,-4.8,0.6,0.6%,-2.2,.,
CCNC(=S)NS(=O)(=O)c1ccc(F)cc1,2.1,-2.9,5.2%,4.4,.,

# Brought forward from above: 2 compounds, followed by the next part.
SMILES,Mtb bLac sens,RecA splice inh,Mtb growth,Arbovirus inh,YopH PTP inh,others
C/C(CC(=O)NC(C)(C)C)=N\NC(=O)COc1ccc(C)cc1Br,-4.8,0.6,0.6%,-2.2,.,
CCNC(=S)NS(=O)(=O)c1ccc(F)cc1,2.1,-2.9,5.2%,4.4,.,
COc1ccc(-c2cn[nH]c2C)cc1OC,-1.6,-0.8,3.5%,2.0,.,
Cc1nc2scc(C)n2c(=O)c1S(=O)(=O)Nc1ccc(N2CCN(S(C)(=O)=O)CC2)cc1,-2.3,3.4,.,.,.,
O=C(O)CCc1ccc(-c2ccccc2)n1-c1cccc(C(=O)O)c1,-4.9,0.8,.,.,.,
COc1cc2[nH]c(=S)nc(NCc3ccccc3)c2cc1OC,9.1,-2.0,.,.,.,
Cc1ccc(S(=O)(=O)N(C)S(=O)(=O)c2ccc(C)cc2)cc1,-2.4,-0.3,.,.,.,
CCOc1c(Br)cc(C(N)=O)cc1OCc1ccccc1,-7.1,0.5,0.1%,0.7,-42.7,
Cc1cc2nc(N)sc2cc1[N+](=O)[O-],8.1,-3.2,-5.0%,-2.4,-29.6,
CN(C(=O)COC(=O)c1nc(Cl)c(Cl)c(Cl)c1Cl)C1CCS(=O)(=O)C1 (centres undefined),.,8.9,-8.0%,7.1,.,
O=C(NC1CCCCC1)C(c1ccccc1)N1CCOCC1 (centres undefined),3.9,1.9,-10.5%,6.6,-27.3,
O=C(Nc1ccc(OCc2ccccc2)cc1)Nc1cccnc1,5.2,0.7,.,.,.,
O=C1CCCN1CCCN1CC(C(=O)N(CCO)Cc2ccccc2)CCC1=O (centres undefined),-3.5,-1.6,.,.,.,
COc1ccc(NC(=O)c2cc(C(C)C)on2)c(OC)c1,-4.0,0.5,3.5%,10.8,-30.3,
Cc1nn(C)c(C)c1C(C)NC(=O)c1ccc(OC2CCN(Cc3ccccn3)CC2)cc1 (centres undefined),-2.7,14.4,.,.,.,
CN1C(=O)CC(N2CCC(C(N)=O)(N3CCCCC3)CC2)C1=O (centres undefined),-4.0,-0.9,4.0%,-1.4,-16.4,
Cc1cc(C(=O)NCCN2CCOCC2)ccc1[N+](=O)[O-],-1.6,.,-0.4%,1.0,.,
COc1cc(C(=S)N2CCCC2)ccc1OS(=O)(=O)c1ccc(NC(C)=O)cc1,-13.0,-3.7,-2.9%,0.2,.,
COCCNc1nc(N)c([N+](=O)[O-])c(NCc2ccccc2)n1,12.9,-1.7,.,.,.,
BrC(=C\c1ccccc1)/C=N/Nc1ccc2nncn2n1,-2.8,3.4,-0.4%,.,.,
COC(=O)c1ccc(/C=N/NC(=O)c2ccc3nc[nH]c3c2)cc1,17.5,-2.9,.,.,.,
C[C@H](NC(=O)N1CCn2c1nc1ccccc12)C(=O)NC1CC1,-4.5,-1.5,.,.,.,
O=C(NNC(=O)c1ccc(Br)s1)NC1CCCCC1,-5.4,-0.7,.,.,.,
Cc1ccccc1-c1nnc(SCC(=O)Nc2cccc(C)c2C)o1,2.8,.,-4.8%,3.8,-35.7,
Cc1ccc(Cn2ccc(NC(=O)c3cc(C(C)C)on3)n2)cc1,3.9,2.3,3.2%,-0.3,-32.0,Arbovirus inh repeat=-15.0
O=C(Nc1ccncc1Cl)c1ccncc1,?,1.7,.,.,.,
C=CCn1c(=NC(=O)c2cccs2)sc2cc(NC(C)=O)ccc21,-0.8,-12.5,.,-3.8,.,
NC(=O)C1CC(O)CN1c1nc(CN2CCOCC2)nc2scc(-c3ccccc3)c12 (centres undefined),-6.5,3.0,-8.4%,3.7,-36.8,
O=C1C2CC=CCC2C(=O)N1Nc1ccccc1 (centres undefined),-1.8,-2.9,?,-28.1,.,
COc1ccccc1NC1=CC(=O)CC(c2ccccc2)C1 (centres undefined),4.4,-0.7,3.9%,-9.8,-20.4,
Cc1ccc(C(=O)OCC(=O)Nc2ccccc2N2CCOCC2)cc1,-4.4,5.0,5.2%,0.1,-29.7,
COc1cc(C(=O)Nc2ccc(OCC(=O)O)cc2)cc(OC)c1OC,-4.1,0.8,-3.6%,-7.9,-17.9,
COc1ccc(C(CNC(=O)c2cccc(S(=O)(=O)Nc3ccccc3OC)c2)N2CCOCC2)cc1 (centres undefined),-10.2,0.0,.,.,.,
COc1ccc(-n2nc(C(=O)NCC(=O)NC(C)C)c3ccccc3c2=O)c(OC)c1,2.0,-1.5,.,.,.,
Cc1ccc(C(=O)N/C(=C\c2ccc(Cl)cc2)C(=O)NCC2CCCO2)cc1 (centres undefined),0.8,-0.7,6.1%,-4.0,-36.7,
Clc1cccc(Nc2nc(-c3ccncc3)cs2)c1,26.7,0.1,6.2%,2.9,.,
Cn1c(=O)[nH]c(=O)c2c1nc(N1CCCCC1)n2CC(O)COc1ccc([N+](=O)[O-])cc1 (centres undefined),-9.0,-0.2,.,.,.,
c1ccc(C2=Nn3c(nnc3-c3ccco3)SC2)cc1,-4.2,-0.6,6.1%,-4.6,.,
COC(=O)C1=C(C)Nc2c(c(=O)n(C)c(=O)n2C)C1c1cccc(O)c1 (centres undefined),2.7,-0.7,-5.8%,.,.,
COc1ccc(C(=O)CCC(=O)Nc2cccnc2)c(OC)c1,-8.8,0.5,.,.,.,
Cc1cc(C)c(S(=O)(=O)c2ccccc2C(=O)O)c(C)c1,3.2,-0.9,-2.3%,3.7,-27.3,
CC(C)CNC(=O)CSc1nnc(-c2ccc(Cl)cc2)n1N,-2.0,-2.3,-1.4%,2.6,.,
Nc1nc(-c2ccccc2)cn1N,-4.5,-9.7,10.1%,7.9,-24.2,
COc1ccc(N2C(=O)NC3CC2(C)Oc2ccccc23)cc1 (centres undefined),-0.9,0.2,8.5%,4.2,.,
CC1CC(C)CN(CCCNC(=O)CCC(=O)N2CC(C)Oc3ccccc32)C1 (centres undefined),4.7,-2.6,.,.,.,
COc1ccccc1NC(=O)CSc1nncn1-c1ccccc1,1.3,2.4,.,.,.,
O=C(Nc1cc(S(=O)(=O)N2CCOCC2)ccc1N1CCOCC1)c1cccc(S(=O)(=O)N2CCCCC2)c1,-9.4,1.9,-2.4%,.,.,
CC(=O)c1cccc(S(=O)(=O)NCCC(=O)O)c1,1.1,-2.5,1.4%,-2.1,.,
CC(Sc1ccccc1)C(=O)N/N=C/c1ccccc1 (centres undefined),0.7,2.4,.,.,.,
Cc1cc(NC(=O)COc2ccc(N(C)S(=O)(=O)c3ccccc3)cc2)no1,6.2,0.2,8.9%,-2.1,-31.1,
CCCCc1nc2cc(C(=O)N3CCCCC3CCNC(C)=O)ccc2o1 (centres undefined),-1.1,-6.1,.,.,.,
COc1ccc(-n2nc(C(=O)NCC(=O)NCC3CCCO3)c3ccccc3c2=O)cc1Cl (centres undefined),-5.0,.,-17.4%,11.5,-15.2,
COc1ccc(NC(=O)c2ccccc2CC[N+](=O)[O-])cc1,6.8,-1.2,0.0%,-9.7,.,
Cc1c(NC(=O)c2nn3c(C(F)(F)F)cc(-c4ccccc4)nc3c2Br)c(=O)n(-c2ccccc2)n1C,2.4,1.5,-1.2%,3.9,-15.0,
Cc1cc(C)c2nc(C(F)(F)F)nc(N3CC(C)OC(C)C3)c2c1 (centres undefined),18.3,7.8,.,0.3,-9.3,
O=S(=O)(NCc1ccccc1)c1ccc(S(=O)(=O)N(Cc2cccs2)CC2CCCO2)cc1 (centres undefined),-4.5,-2.9,-2.8%,-4.6,-9.2,
c1nc2nc3c(c(N4CCNCC4)n2n1)CCCC3,-6.0,-1.6,-1.3%,.,.,
Cc1cc(C(=O)N/N=C/c2cccc([N+](=O)[O-])c2)c(C)n1-c1ccccc1,-0.4,-0.4,4.5%,-1.4,-34.1,
CC(=O)N1CCCC1(C(=O)O)c1ccccc1 (centres undefined),-4.9,-1.2,-2.8%,.,.,
OCCNc1nnc(-c2ccccc2)c(-c2ccccc2)n1,-1.2,1.5,.,.,.,
COc1cc(C(=O)NCc2ccc(-n3cccc3)cc2)cc(OC)c1OC,5.0,2.2,.,3.0,.,
COc1ccc(/C=N/Nc2nc(=O)[nH]nc2C)cc1OC,-11.3,0.4,-4.2%,.,.,

# The results go on.
SMILES,Mtb bLac sens,RecA splice inh,Mtb growth,Arbovirus inh,YopH PTP inh,others
Cc1c(CC(=O)NCCC(C)C)c(=O)oc2cc3c(cc12)CCC(C)(C)O3,-2.2,-1.5,.,.,.,
O=C(Nc1ccccc1N1CCN(c2ccc(F)cc2)CC1)c1ccccc1,0.5,2.6,-1.2%,-3.4,-12.5,
O=c1cc(O)nc(SC23CC4CC(CC(C4)C2)C3)[nH]1,2.8,3.3,-7.4%,0.3,-25.8,
Cc1cccc(N2CCN(C(=O)CCS(=O)(=O)c3ccc4c(c3)oc(=O)n4C)CC2)c1C,4.3,1.8,.,.,.,

# Molecules from the list above with an NH in an aromatic ring (nine):
SMILES,Mtb bLac sens,RecA splice inh,Mtb growth,Arbovirus inh,YopH PTP inh,others
COc1cccc(-c2nc(C(N)=O)c3[nH]c(=O)n(-c4cccc(Cl)c4)c3n2)c1OC,-1.9,-3.2,13.1%,-0.3,-39.7,Arbovirus inh repeat=4.4
O=C(NCCN1CCOCC1)c1ccccc1N1C(=O)[C@@H]2Cc3c([nH]c4ccccc34)C(c3ccc(F)cc3)N2C1=O (some centres undefined),-3.5,-5.0,.,.,.,
COC(=O)N/N=C/c1c[nH]c2ccccc12,2.2,-2.9,-7.2%,5.2,-25.9,
COc1ccc(-c2cn[nH]c2C)cc1OC,-1.6,-0.8,3.5%,2.0,.,
COc1cc2[nH]c(=S)nc(NCc3ccccc3)c2cc1OC,9.1,-2.0,.,.,.,
COC(=O)c1ccc(/C=N/NC(=O)c2ccc3nc[nH]c3c2)cc1,17.5,-2.9,.,.,.,
Cn1c(=O)[nH]c(=O)c2c1nc(N1CCCCC1)n2CC(O)COc1ccc([N+](=O)[O-])cc1 (centres undefined),-9.0,-0.2,.,.,.,
COc1ccc(/C=N/Nc2nc(=O)[nH]nc2C)cc1OC,-11.3,0.4,-4.2%,.,.,
O=c1cc(O)nc(SC23CC4CC(CC(C4)C2)C3)[nH]1,2.8,3.3,-7.4%,0.3,-25.8,
